Screening data from PubChem.
H5N1 CPE: MDCK cell protection from H5N1 avian flu; cytopathic effect, luminescence, 72 h; active compounds read high; no value below 0 was filed and about half of the inactive calls have no number; reference of the scale not given here; inhibition, % at 50 µM; 0.07% of 96,000 active; in the data active = inhibition above about 25%
The depositor's hits bear a star. Not all compounds are listed; the hit share may differ from the screen's.

For Cc1ccccc1CSc1nsc(N)n1 the results were H5N1 CPE inactive.
CC1(C)NC(=O)N(CC(O)COc2ccc(-c3ccccc3)cc2)C1=O (stereo unspecified) was read as H5N1 CPE 1.4.
`CCOC(=O)c1cnc(-n2nc(C)cc2C)nc1N1CCOCC1` gave H5N1 CPE 0.9.
For CCOc1ccc(NC(=O)NCCCSC2CCCCC2)cc1 the results were H5N1 CPE 2.3.
Screening N#Cc1ccccc1Sc1ccccc1C(=O)OCc1nnc(-c2ccccc2)o1 returned H5N1 CPE inactive.
For COc1ccc(CCNC(=O)COc2ccc(S(=O)(=O)N3CCOCC3)cc2)cc1 the results were H5N1 CPE inactive.
CCCc1cc(=O)oc2cc(Oc3ncccn3)ccc12 was read as H5N1 CPE 0.5.
Screening CC(/C=N/NC(=O)c1cc(-c2ccncc2)nc2ccccc12)=C\c1ccco1 returned H5N1 CPE 3.3.
Screening COC(=O)c1ccc2c(c1)N(Cc1nc(-c3cccc(C)c3)oc1C)C(=O)C1CCCN21 (stereo unspecified) returned H5N1 CPE 3.7.
`CCCC(=O)NCCc1cc2ccc(OC)cc2[nH]c1=O` gave H5N1 CPE 0.7.
`COCCCn1ccc(O)c(Cc2ccc(F)cc2)c1=O` gave H5N1 CPE inactive.
For COc1ccccc1C(=O)O/N=C1/CCCc2c1ccc(OC)c2[N+](=O)[O-] the results were H5N1 CPE 1.1.
Screening Cc1ccc(C(=O)c2nocc2C(=O)c2cccs2)cc1 returned H5N1 CPE inactive.
Screening CCCN(CCC)c1nc2ccccc2n2c(C)nnc12 returned H5N1 CPE 0.4.
`CC(=O)c1c(C)[nH]c(C(=O)N2CCN(c3ncccn3)CC2)c1C` gave H5N1 CPE inactive.
For CCc1ccc(CNC(=O)c2cc3c(C)nc4ccccc4c3o2)cc1 the results were H5N1 CPE 2.5.
COc1cc(NC(=O)C2CC2C)c(C(=O)O)cc1OC (stereo unspecified) was read as H5N1 CPE inactive.
For O=C(Oc1cccc(C(=O)N2CCOCC2)c1)c1ccc(Br)cc1 the results were H5N1 CPE 0.3.
`COC(=O)c1sc(NC(=O)C(C)C)c(C(=O)OC)c1C` gave H5N1 CPE inactive.
Screening CCCCN(c1ccccc1)c1ncnc(N)c1[N+](=O)[O-] returned H5N1 CPE 2.0.
Nc1nc(SCc2ccc(Cl)cc2Cl)n[nH]1 was read as H5N1 CPE 0.7.
Screening Cc1ccc(NC(=O)c2cc(NC(=O)c3ccco3)ccc2N2CCOCC2)cc1Cl returned H5N1 CPE inactive.
O=C(Nc1cccnc1Cl)c1ccc(S(=O)(=O)N2CCCCCC2)cc1 was read as H5N1 CPE inactive.
`CCc1cccc(NC(=O)c2ccc(Br)o2)c1` gave H5N1 CPE inactive.
For CC(=O)Nc1ccc(NC(=O)C(C)OC(=O)CCC(=O)c2ccc(F)cc2)cc1 (stereo unspecified) the results were H5N1 CPE inactive.
`O=C(Nc1nc(-c2cccc(Br)c2)cs1)Oc1ccccc1` gave H5N1 CPE inactive.
Screening CNCCOc1ccccc1C(C)(C)C returned H5N1 CPE inactive.
Screening O=C(CN1CCN(c2ccccc2)CC1)Nc1ccc(OCc2ccccc2)cc1 returned H5N1 CPE 0.4.
`CC(C)[C@H](NC(=O)Nc1ccc(Oc2ccccc2)cc1)C(=O)O` gave H5N1 CPE inactive.
COc1ccc(OC)c(NC(=O)CCCN2C(=O)C3C4C=CC(C4)C3C2=O)c1 (stereo unspecified) was read as H5N1 CPE inactive.
Screening CC1CCCCN1C(=S)NCCc1ccccc1 (stereo unspecified) returned H5N1 CPE inactive.
Screening CC(C)C(C)(C#N)NC(=O)CSc1nnc(-c2ccncc2)n1Cc1ccccc1 (stereo unspecified) returned H5N1 CPE 0.9.
Cc1ccccc1NC(=S)C1=C(O)c2sccc2N(C)S1(=O)=O was read as H5N1 CPE inactive.
`COCCNCC#CCOc1ccc(OC)cc1` gave H5N1 CPE 0.4.
Screening COc1ccc(CC(=O)Nc2ccc(-c3noc(COc4ccccc4C)n3)cc2)cc1 returned H5N1 CPE inactive.
COc1ccccc1OCCNC(=O)c1ccccc1C was read as H5N1 CPE 0.7.
For COCCCN1C(=O)C(=O)/C(=C(/O)c2ccc3c(c2)CC(C)O3)C1c1cccnc1 (stereo unspecified) the results were H5N1 CPE 0.8.
Screening COCCNc1nc2c(c(=O)n(Cc3ccc(OC)cc3)c(=O)n2C)n1C returned H5N1 CPE inactive.
`Cc1cc(C(=O)N2CCN(C/C=C/c3ccccc3)CC2)cs1` gave H5N1 CPE inactive.
Screening Cc1ccc(-c2nn3c(C)nnc3s2)cc1NC(=O)c1ccc(-c2cccc(Cl)c2)o1 returned H5N1 CPE inactive.
`CCCc1ccc(C(=O)N2CCN(c3ccccc3OCC)CC2)cc1` gave H5N1 CPE 0.6.
Screening Cc1noc(C)c1C(=O)OCC(=O)NC(c1ccccc1)c1ccccc1 returned H5N1 CPE 0.5.
Cc1ccc(CNC(=O)CCC(=O)c2cccs2)cc1 was read as H5N1 CPE 0.5.
Screening CC(=O)Nc1ccc(S(=O)(=O)NCCC(=O)NCCc2ccc(F)cc2)cc1 returned H5N1 CPE inactive.
For Cn1c(Oc2ccccc2)c(C=O)c2ccccc21 the results were H5N1 CPE inactive.
For CCCCOc1ccc(C(=O)Nc2ccc(N3CCN(C)CC3)cc2)cc1 the results were H5N1 CPE inactive.
CCOC(=O)c1cc(NC(=O)SCC(=O)O)c(C)nc1C was read as H5N1 CPE 2.3.
CN(C(=O)COc1ccccc1)c1nnc(-c2cccnc2)s1 was read as H5N1 CPE inactive.
`CC[C@H](C)[C@H](NC(=O)c1ccc(Cl)cc1)C(=O)OCC(=O)c1ccc2c(c1)NC(=O)CO2` gave H5N1 CPE inactive.
`Cc1ccc(N(CC(=O)NC2CC3CCC2C3)S(C)(=O)=O)cc1C` (stereo unspecified) gave H5N1 CPE inactive.
Screening COc1ccc(S(=O)(=O)Nc2ccc(F)cc2)c(C)c1C returned H5N1 CPE 3.1.
For O=C(NCCCc1ccccc1)c1ccncc1 the results were H5N1 CPE 0.5.
Screening COc1ccccc1-c1nnc2sc(COc3ccc(Cl)cc3)nn12 returned H5N1 CPE inactive.
For CCc1c(C)[nH]c(=S)c(C#N)c1C the results were H5N1 CPE inactive.
`Cc1csc(Sc2nc3c(c(=O)[nH]c(=O)n3C)n2Cc2ccccc2Cl)n1` gave H5N1 CPE 2.0.
Screening O=C(CCSc1nc(-c2ccco2)cc(C(F)(F)F)n1)N1CCN(c2ccccc2)CC1 returned H5N1 CPE inactive.
Screening Cc1c(NC(=O)C(C)NCC2CCCO2)c(=O)n(-c2ccccc2)n1C (stereo unspecified) returned H5N1 CPE inactive.
`Cc1c2cnn(-c3ccccc3)c(=O)c2c(C)n1CCCC(=O)N1CCN(c2ncccn2)CC1` gave H5N1 CPE 0.1.
Cc1ccc(NC(=O)CCC(=O)NCCO)cc1 was read as H5N1 CPE inactive.
Screening COc1cccc(C2CC(c3c(-c4ccccc4)c4cc(Cl)ccc4[nH]c3=O)=NN2S(C)(=O)=O)c1OC (stereo unspecified) returned H5N1 CPE 0.4.

Reprinted at random: 4 records from the list, in no set order.
`Cc1csc(Sc2nc3c(c(=O)[nH]c(=O)n3C)n2Cc2ccccc2Cl)n1` gave H5N1 CPE 2.0.
`Cc1c2cnn(-c3ccccc3)c(=O)c2c(C)n1CCCC(=O)N1CCN(c2ncccn2)CC1` gave H5N1 CPE 0.1.
Screening COc1ccc(S(=O)(=O)Nc2ccc(F)cc2)c(C)c1C returned H5N1 CPE 3.1.
Screening Cc1c(NC(=O)C(C)NCC2CCCO2)c(=O)n(-c2ccccc2)n1C (stereo unspecified) returned H5N1 CPE inactive.

Following part:
`CCCCOc1ccc(-c2ncc(C(=O)OCC)c(N)n2)cc1` gave H5N1 CPE inactive.
`CCCCC(=O)Nc1ccc(C)c(O)c1` gave H5N1 CPE 0.5.
CCN(CC)S(=O)(=O)c1cccc(NC(=O)COC(=O)c2ccc(Br)o2)c1 was read as H5N1 CPE inactive.
For O=C(O)C1C2C=CC(C2)C1C(=O)NCCC1=CCCCC1 (stereo unspecified) the results were H5N1 CPE inactive.
NS(=O)(=O)c1ccc(CCNC(=O)C2CCCCN2S(=O)(=O)c2ccccc2)cc1 (stereo unspecified) was read as H5N1 CPE 80.3*.
COc1ccccc1N1CC(C(=O)Nc2cccc(C(=O)O)c2)CC1=O (stereo unspecified) was read as H5N1 CPE inactive.
For COc1ccc(-n2c(C)c([N+](=O)[O-])c3ccc(O)c(CN(C)C)c32)cc1 the results were H5N1 CPE 0.4.
`Cc1ccc2c(c1)c1c3n2CCN(C(=O)Cn2c(-c4ccccc4)noc2=O)C3CCC1` (stereo unspecified) gave H5N1 CPE 1.3.
Screening Cc1csc(NC(=O)CSc2nnc(-c3ccccn3)n2-c2ccc(C)c(C)c2)n1 returned H5N1 CPE 1.1.
ON1C2CCCCC2N(O)C1c1c(F)c(F)c(F)c(F)c1F (stereo unspecified) was read as H5N1 CPE 0.5.
For c1ccc(CSc2ncnc3c2cnn3Cc2ccccc2)cc1 the results were H5N1 CPE inactive.
`Cc1ccccc1NC(=O)C1C2CCCC1C2c1ccccc1` (stereo unspecified) gave H5N1 CPE inactive.
Screening CC(C)c1ccc(S(=O)(=O)N2CCN(C(=O)c3cccc(F)c3)CC2)cc1 returned H5N1 CPE 3.8.
`Cc1ccc(NC(=O)CCn2cccc2)cc1Cl` gave H5N1 CPE inactive.
Screening Cc1ccc(N2C(=O)C(Cl)=C(NCc3ccccc3)C2=O)c(C)c1 returned H5N1 CPE inactive.
For NC(=O)c1ccccc1N/C=C/C(=O)c1ccccc1 the results were H5N1 CPE 1.8.
For CCOC(=O)c1ccccc1NC(=O)c1cccs1 the results were H5N1 CPE 1.4.
For COc1ccc(-n2ncc3c(NCCN4CCOCC4)ncnc32)cc1 the results were H5N1 CPE inactive.
Cc1ccc(C(=O)COC(=O)c2ccc(Br)o2)cc1C was read as H5N1 CPE inactive.
Screening COc1cc(/C=N/NC(=O)/C(=C\c2ccc([N+](=O)[O-])cc2)NC(=O)c2ccccc2)cc(OC)c1O returned H5N1 CPE inactive.
For CCCc1ccc(C(=O)NNC(=O)c2ccc(Cl)cc2)cc1 the results were H5N1 CPE 0.5.
Screening COc1ccc(-c2noc(-c3ccco3)n2)cc1OC returned H5N1 CPE 0.3.
Screening O=C(CN1CCCCC1)Nc1cccc(-n2cnnn2)c1 returned H5N1 CPE inactive.
CC(O)(CS(=O)(=O)Cc1ccccc1)C(=O)Nc1ccc(C(F)(F)F)cc1 (stereo unspecified) was read as H5N1 CPE 2.4.

Among those listed so far, six contain a thiophene ring, fused or not.
Screening Cc1ccc(C(=O)c2nocc2C(=O)c2cccs2)cc1 returned H5N1 CPE inactive.
`COC(=O)c1sc(NC(=O)C(C)C)c(C(=O)OC)c1C` gave H5N1 CPE inactive.
Cc1ccccc1NC(=S)C1=C(O)c2sccc2N(C)S1(=O)=O was read as H5N1 CPE inactive.
`Cc1cc(C(=O)N2CCN(C/C=C/c3ccccc3)CC2)cs1` gave H5N1 CPE inactive.
Cc1ccc(CNC(=O)CCC(=O)c2cccs2)cc1 was read as H5N1 CPE 0.5.
For CCOC(=O)c1ccccc1NC(=O)c1cccs1 the results were H5N1 CPE 1.4.

Continuation.
Screening COc1cccc(-c2cc3nc(-c4ccccc4)cc(N4CCC5(CC4)OCCO5)n3n2)c1 returned H5N1 CPE 1.1.
For Fc1ccccc1COc1cccc(/C=N/n2cnnc2)c1 the results were H5N1 CPE inactive.
`OCC#Cc1cnc2ccccc2c1` gave H5N1 CPE inactive.
For CC(=O)N(c1cccc(Br)c1)C1C=CS(=O)(=O)C1 (stereo unspecified) the results were H5N1 CPE inactive.
Screening CSc1nncc(=O)[nH]1 returned H5N1 CPE inactive.
C=CCn1c(C)cc(C(=O)COc2nncc3ccccc23)c1C was read as H5N1 CPE inactive.
CC(C)(C)N1C(=O)c2ccccc2NC(=O)N1Cc1ccc(Br)cc1 was read as H5N1 CPE 2.4.
`CCCc1cc(-c2n[nH]c(=S)n2C(C)c2ccccc2)cs1` (stereo unspecified) gave H5N1 CPE 1.0.
Screening CCOc1ccccc1-n1c(SCC(N)=O)nnc1-c1ccc(O)cc1 returned H5N1 CPE inactive.
`CN(C(=O)CSc1nc2c(c(=O)[nH]1)CCCC2)C1CCCCC1` gave H5N1 CPE 0.1.
Screening O=C(N=C1SCC(=O)N1c1ccccc1Cl)c1ccco1 returned H5N1 CPE inactive.
Screening O=C(Nc1ccc2c(c1)OCO2)Nc1ccc(Cl)cc1Cl returned H5N1 CPE inactive.

An excerpt from above in order of molecular weight, smallest number first.
`OCC#Cc1cnc2ccccc2c1` gave H5N1 CPE inactive.
Screening O=C(N=C1SCC(=O)N1c1ccccc1Cl)c1ccco1 returned H5N1 CPE inactive.
Screening O=C(Nc1ccc2c(c1)OCO2)Nc1ccc(Cl)cc1Cl returned H5N1 CPE inactive.
For CC(=O)N(c1cccc(Br)c1)C1C=CS(=O)(=O)C1 (stereo unspecified) the results were H5N1 CPE inactive.
`CN(C(=O)CSc1nc2c(c(=O)[nH]1)CCCC2)C1CCCCC1` gave H5N1 CPE 0.1.
Screening CCOc1ccccc1-n1c(SCC(N)=O)nnc1-c1ccc(O)cc1 returned H5N1 CPE inactive.
Screening COc1cccc(-c2cc3nc(-c4ccccc4)cc(N4CCC5(CC4)OCCO5)n3n2)c1 returned H5N1 CPE 1.1.

(list continues)
For O=P1(O)C=C(c2ccccc2)OC(c2ccccc2)=C1 the results were H5N1 CPE 0.2.
Cc1nc2nc(NCc3cccs3)nn2c(C)c1Cl was read as H5N1 CPE 1.3.
`O=C(c1ccc(Cl)c(S(=O)(=O)NCc2ccccc2)c1)N1CCN(c2ccccn2)CC1` gave H5N1 CPE 0.2.
For CCCC12CN3CC(C)(CN(C1)C31CCCCC1)C2=O the results were H5N1 CPE 1.6.
Screening CCCn1c(Cc2ccccc2)nnc1SCC(=O)N1CCOCC1 returned H5N1 CPE inactive.
`O=C(Oc1ccccc1)c1cccc(N2C(=O)CCC2=O)c1` gave H5N1 CPE 0.7.
Screening O=C(CSc1nnc(Cc2ccccc2)o1)NC1CC2CCC1C2 (stereo unspecified) returned H5N1 CPE 0.1.
CN1CCN(c2ccc(Cl)cc2NC(=O)c2ccc(S(=O)(=O)N3CCCCCC3)cc2)CC1 was read as H5N1 CPE inactive.
Screening O=C(Cn1nnc(-c2ccccc2NC(=O)c2ccco2)n1)NC1CCCCC1 returned H5N1 CPE inactive.
S=C(Nc1cccc(Cl)c1)N1CCOCC1 was read as H5N1 CPE inactive.
